Assay outcomes from PubChem BioAssay.
gsp agonist = qHTS for Agonist of gsp, the Etiologic Mutation Responsible for Fibrous Dysplasia/McCune-Albright Syndrome: qHTS | Potency, µM (doses to about 76.9 µM), inactives show top-dose activation (cAMP increase), most hits filed as activators | gsp mutant cells, cAMP HTRF, 30 min; control for the full effect not named in the record | AID 624287, 2012 | 340,000 tested, 0.13% active; active = well fitted activation curve with a large enough effect; inconclusive = small, poorly fitted or top-dose-only effect, or another doubt; inactive = no such curve, though single readings can be large or run the other way; cell line not stated here;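 also: phosphodiesterase inhibitor Ro 20-1724 added with compounds to block cAMP breakdown; potency is read from the fitted curve at half-maximal effect; nearly all actives have a fitted effect of over 60% in size; about a fifth of the inactives were tested at one dose only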
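Cells in DMEM/10% FBS with G418 were pretreated with compounds in DMSO plus […] (300 uM stock) for 30 min at 37C. cAMP was measured by HTRF (cAMP-d2 plus anti-cAMP antibody-K) after 30 min at room temperature.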
TRPML1 inh = qHTS for Inhibitors of the Human Mucolipin Transient Receptor Potential 1 (TRPML1). TRPML1-inducible cells, Ca2+ dye fluorescence, FDSS; stronger effect = lower value; inhibition of EC80 agonist-evoked calcium signal. Mucolipin-1 (Homo sapiens), Q9GZU1. 390,000 tested, 0.02% active. activity change, negative = inhibition, % (concentration not given with the values). AID 624415, 2012; in the data active means activity change below about -50%; inconclusive means about -30% to -50%; inactive means above about -30%;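 also: stimulus is agonist 54-4 at its EC80 concentration; % is scaled to controls: 0 for no effect and ±100 for the full control effect; compound concentration not given in the record; the text of the record puts the active cut at -80%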
Target sequence (Q9GZU1 whole entry, looked up): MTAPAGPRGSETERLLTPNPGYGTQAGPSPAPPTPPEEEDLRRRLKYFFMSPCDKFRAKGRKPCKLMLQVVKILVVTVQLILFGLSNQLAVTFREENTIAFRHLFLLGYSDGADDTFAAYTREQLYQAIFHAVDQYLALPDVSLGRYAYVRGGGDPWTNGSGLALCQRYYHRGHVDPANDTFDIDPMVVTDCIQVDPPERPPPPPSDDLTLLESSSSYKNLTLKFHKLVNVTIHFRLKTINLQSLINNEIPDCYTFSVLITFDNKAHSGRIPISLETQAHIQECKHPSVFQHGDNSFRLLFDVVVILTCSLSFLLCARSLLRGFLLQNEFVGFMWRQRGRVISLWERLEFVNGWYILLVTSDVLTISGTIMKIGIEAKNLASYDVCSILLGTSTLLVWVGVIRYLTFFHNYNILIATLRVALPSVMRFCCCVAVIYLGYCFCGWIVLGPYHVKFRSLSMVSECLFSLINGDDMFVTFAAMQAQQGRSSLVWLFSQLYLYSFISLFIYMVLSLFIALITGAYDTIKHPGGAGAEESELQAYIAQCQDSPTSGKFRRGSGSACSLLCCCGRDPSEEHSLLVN
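TRPML1-DL cells, Tet-induced overnight (~16 h, 37 °C) at 1,500 cells/well, were loaded with Ca8 no-wash dye plus quencher for 45-90 min at room temperature. Compounds were pinned during FDSS kinetic reading; agonist 54-4 at EC80 (4 uM final) then added.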
gsp antagonist = qHTS for Antagonists of gsp, the Etiologic Mutation Responsible for Fibrous Dysplasia/McCune-Albright Syndrome: qHTS | gsp-mutant cells, cAMP HTRF, 30 min; control for the full effect not named in the record | Potency, µM (doses to about 76.9 µM), for the others: at the highest dose activity change, negative = inhibition, actives largely listed as inhibitors | 340,000 tested, 0.4% active | AID 624288, 2012; active = falling curve of any shape with a large fitted effect; inconclusive = falling curve, mostly with a smaller effect; inactive = flat or rising curve; cell line not stated here;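 also: intracellular cAMP measured with PDE inhibitor Ro 20-1724 present during compound exposure; potency is read from the fitted curve at half-maximal effect; % is scaled to controls: 0 for no effect and ±100 for the full control effect; nearly all actives have a fitted effect of over 65% in size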
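HTRF cAMP measurement after 30 min RT detection following 30 min, 37C compound treatment alongside […] (added as 300 uM solution) in G418-selected cells seeded at 2000/well and grown 16–24 h.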
TRPV1 PAM = HTS Assay for Compounds that Act as Potentiators of the Vanilloid Receptor 1; Transient receptor potential cation channel subfamily V member 1 (Homo sapiens), Q8NER1; AID 540277, 2011; 320,000 tested, 0.02% active; TRPV1-expressing cells, Fluo-8 calcium influx, capsaicin EC20 potentiation; host cell line not named in the record; control for the full effect not named in the record; potentiation, % at 8.33 µM; active means potentiation above 80%; inconclusive means 30% to 80%; inactive means below 30%; also: 0% is about no effect
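TRPV1-expressing cells were cultured overnight at 35.5C and loaded with Fluo-8 calcium dye for 40 to 90 min at room temperature. After a 10 s baseline, compound was added and calcium influx was read kinetically for 3 min (ex 480/em 520 nm).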
ClpP mod = qHTS Assay for Activators of ClpP; AID 651965, 2013; Potency, µM (doses to about 57.5 µM), without a hit: top-dose activity change, negative = active; ATP-dependent Clp protease proteolytic subunit (Bacillus subtilis (strain 168)), P80244; purified B. subtilis ClpP, FRET peptide cleavage, 20 min; 340,000 tested, 1.9% active; active = well fitted falling curve with a large enough effect; inconclusive = small, poorly fitted or top-dose-only effect; inactive = no such curve, though single readings can be large or run the other way; also: potency is read from the fitted curve at half-maximal effect; the source files actives as falling curves though it sought activators and does not explain the sign; nearly all actives have a fitted effect of over 65% in size; many hits overshoot -100%
Target sequence (P80244 whole entry, looked up): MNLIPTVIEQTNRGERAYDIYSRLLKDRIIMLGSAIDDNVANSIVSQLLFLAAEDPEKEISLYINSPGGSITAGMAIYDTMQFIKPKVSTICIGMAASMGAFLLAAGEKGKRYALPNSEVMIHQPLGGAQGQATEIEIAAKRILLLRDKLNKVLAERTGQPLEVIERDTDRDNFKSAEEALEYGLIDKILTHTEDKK
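FRET quenching reversal measured ClpP activation: 10 microg/mL B. subtilis ClpP at pH 8 with the FRET-FV decapeptide, read at 430 nm after 320 nm excitation. The 20-min minus 0-min signal was scaled between DMSO/no-enzyme wells and ADEP (5.8 microM final).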
Sfp PPTase inh = qHTS Assay for Inhibitors of Bacillus subtilis Sfp phosphopantetheinyl transferase (PPTase). 310,000 tested, 3.5% active. 4'-phosphopantetheinyl transferase ffp (Bacillus subtilis), Q9F4F7. Potency, µM, inactives show max response, negative = inhibition, most hits filed as inhibitors. Biochemical Sfp PPTase activity, qHTS; active = well fitted inhibition curve with a large enough effect; inconclusive = small, poorly fitted or top-dose-only effect, or another doubt; inactive = no such curve, though single readings can be large or run the other way;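 also: the enzyme is Sfp with the accession as filed and its product quenches rhodamine fluorescence; potency is read from the fitted curve at half-maximal effect; 0% = enzyme reaction without inhibitor and -100% = no enzyme wells; top concentration of the series not given in the record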
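Fluorescence-quenching assay with 15 nM Sfp, 5 uM rhodamine-CoA and 12.5 uM BHQ-2-labelled ybbR peptide in pH 7.6 Hepes/MgCl2 buffer. Enzyme was pre-incubated with compound for 15 min at room temperature. Rate was taken from the 30-min fluorescence change (525/598 nm).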
Menin MLL FP FL = qHTS Assay for Inhibitors Targeting the Menin-MLL Interaction in MLL Related Leukemias: Competition With Fluorescein Labeled MLL-derived Peptide; 290,000 tested, under 10 active; Fluorescence polarization, fluorescein-MLL peptide displacement from menin; AID 1766, 2009; FP activity change, % at 61.4 µM; inconclusive = falling polarisation curve, or a change in total fluorescence; inactive = total fluorescence flat and polarisation flat or rising; no compound was filed as active; the % refers to the polarisation; negative = inhibition;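 also: % of control where 0% means no effect; inhibitors lower the polarisation; unlabelled MLL peptide was the positive control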
Active calls of the source: *; u = inconclusive; x = not tested or not shown; & = joins results of further samples; [ ] = dose if it differs, or a comment.

SMILES | gsp agonist | TRPML1 inh | gsp antagonist | TRPV1 PAM | ClpP mod | Sfp PPTase inh | Menin MLL FP FL
COc1ccc2nc(SCC(=O)N3CCN(c4ccc(F)cc4)CC3)c(C#N)cc2c1 | -11% | 16 | -2% | 18 | 1.0% | -21% | 2.9
CC(=O)Nc1cccc(C(=O)OCC(=O)NNC(=O)c2cccs2)c1 | 4% | 11 | 6% | 13 | -4.9% | x | x
COC(=O)Nc1ccc(S(=O)(=O)N2CCC(Cc3ccccc3)CC2)cc1 | 0% | 27 | -14% | -10 | -4.1% | 27% | 1.3
O=C(Nc1ccc(-n2cccn2)cc1)C1CCCCN1Cc1cccc2c1OCO2 (stereo not drawn) | -3% | -14 | 1% | -6 | -1.2% | 9% | -1.4
CC(C)C(NC(=O)c1ccccc1)C(=O)NCCc1ccccc1 (stereo not drawn) | -25% | 4 | 13% | 6 | 0.3% | 12% | 1.6
COC(=O)c1sc(S(=O)(=O)N2CCC(C)CC2)c(C(=O)OC)c1C | -31%[inhibitor] | -1 | -11% | -23 | -1.2% | 2% | 2.8
COc1ccc(C(C(=O)NC2CCCCC2)N2CCC3(CC2)OCCO3)cc1 (stereo not drawn) | u | 27 | -1% | 18 | 0.4% | 17% | 4.9
COc1cc(OC)c2ccc(=O)oc2c1C(CCN1CCCC1)c1ccc(N(C)C)cc1 (stereo not drawn) | x | 31&-16 | 2% | 15 | 2.0% | 11%&-1% | 5.2&4.7
O=C(O)c1cccc(N2C(=O)c3cccnc3C2=O)c1 | -21% | -9 | 3% | 23 | -1.4% | 10% | -0.9
O=C(O)CCn1cc(-c2ccc(Cl)cc2)nc1-c1ccc(Cl)nc1 | x | 1 | -7% | u | -9.7% | x | x
COc1ccc(CCNC(=O)CSc2nnc(Cc3csc(N)n3)n2C)cc1OC | 21% | 18 | -2% | -1 | -14% | -6% | 0.7
CCOC(=O)C1(Cc2cccc(Cl)c2)CCCN(C(=O)c2ccco2)C1 (stereo not drawn) | u | 31 | 1% | -14 | -4.5% | 16% | 1.3
O=[N+]([O-])c1ccc(C(O)C[n+]2ccccc2)cc1 (stereo not drawn) | -5% | 2 | 14% | -30 | -2.5% | 6% | -13
CC12CCC(=O)N1C(C(=O)NNC(=O)c1ccccc1Cl)CS2 (stereo not drawn) | 21% | -4 | 10% | 9 | -0.5% | x | x
COc1ccc(N2C(=O)CC(Sc3nc(C)c4c(n3)CCCC4)C2=O)cc1 (stereo not drawn) | u | 26 | 13% | 0 | 1.0% | -11% | 5.2
CN(Cc1ccc(C(C)(C)C)cc1)C(=O)Cc1ccc(S(=O)(=O)N2CCOCC2)s1 | 9% | 27 | -19% | -15 | -0.4% | x | x
COc1ccc(CCNC2CC(=O)N(CCc3ccc(OC)c(OC)c3)C2=O)cc1OC (stereo not drawn) | -9% | 17 | 3% | 9 | 2.3% | -15% | -1.1
COc1cccc(C2N=C(c3ccccc3C)NO2)c1OC (stereo not drawn) | -2%[15.4 µM] | -13 | 2% | 12 | x | 2% | -2.1
Nc1ccc(-c2c3ccccc3nc3ccccc23)cc1 | 16%[15.4 µM] | 6 | 5% | u | -0.5% | 15% | 2.1
CC(=O)Nc1ccc(C(=O)CN2C(=O)NC3(CCCc4ccccc43)C2=O)c(F)c1 (stereo not drawn) | u | 10 | -7% | x | x | x | x
CCC(C)(C)n1nnnc1CN1CCC(NC(=O)c2ccccc2C)CC1 | 15% | -4 | 13% | -3 | -0.4% | 14% | 4.6
CCOC(=O)CCCSc1nc(-c2ccc3c(c2)OCO3)cc(C(F)(F)F)c1C#N | u | -17 | -4% | -1 | 16µM* | -4% | 3.5
COC(=O)C1=C(C)NC(C)=C(C(=O)OC)C1c1ccccn1 | -56%[inhibitor] | 8 | 14% | 10 | -23% | 9% | -0.1
O=C(O)Cn1nc2ccccc2n1 | -18% | 28 | 12% | 13 | -0.2% | 10% | -1.0
Cc1cc(C)c(N=C2SCC(=O)N2Cc2ccco2)c(C)c1 | 4%[15.4 µM] | 1 | -10% | 8 | x | -4% | 33[activator]

Four entries from above, with each value named:
COc1cc(OC)c2ccc(=O)oc2c1C(CCN1CCCC1)c1ccc(N(C)C)cc1 (stereo not drawn)
  gsp agonist: x
  TRPML1 inh: 31&-16
  gsp antagonist: 2%
  TRPV1 PAM: 15
  ClpP mod: 2.0%
  Sfp PPTase inh: 11%&-1%
  Menin MLL FP FL: 5.2&4.7
COC(=O)Nc1ccc(S(=O)(=O)N2CCC(Cc3ccccc3)CC2)cc1
  gsp agonist: 0%
  TRPML1 inh: 27
  gsp antagonist: -14%
  TRPV1 PAM: -10
  ClpP mod: -4.1%
  Sfp PPTase inh: 27%
  Menin MLL FP FL: 1.3
CC(=O)Nc1cccc(C(=O)OCC(=O)NNC(=O)c2cccs2)c1
  gsp agonist: 4%
  TRPML1 inh: 11
  gsp antagonist: 6%
  TRPV1 PAM: 13
  ClpP mod: -4.9%
  Sfp PPTase inh: x
  Menin MLL FP FL: x
Cc1cc(C)c(N=C2SCC(=O)N2Cc2ccco2)c(C)c1
  gsp agonist: 4%[15.4 µM]
  TRPML1 inh: 1
  gsp antagonist: -10%
  TRPV1 PAM: 8
  ClpP mod: x
  Sfp PPTase inh: -4%
  Menin MLL FP FL: 33[activator]

(cont.)
SMILES | gsp agonist | TRPML1 inh | gsp antagonist | TRPV1 PAM | ClpP mod | Sfp PPTase inh | Menin MLL FP FL
O=S(=O)(c1ccc(S(=O)(=O)N(Cc2cccs2)CC2CCCO2)cc1)N1CCCCC1 (stereo not drawn) | 5% | -9 | -11% | 22 | -0.7% | 6% | 2.1
O=C(NCCCn1ccnc1)c1cc2cc([N+](=O)[O-])ccc2oc1=O | 4% | 24 | 0% | -3 | -0.7% | 9% | 4.8
COC(=O)Nc1ccc(S(=O)(=O)N2CCCC(C(=O)N3CCC(C)CC3)C2)cc1 (stereo not drawn) | -2% | 4 | -7% | -22 | -0.2% | -6% | -0.4
O=c1ccc(Cc2ccccn2)n[nH]1 | -46%[inhibitor] | 0 | 7% | 2 | 0.8% | -8% | -0.8
Cc1ccc(NC(=O)C(CC(C)C)NC(=O)C2CCC(C)CC2)nc1 (stereo not drawn) | 2% | -3 | -1% | -14 | -3.4% | 4% | 2.1
Cc1cc(C)cc(N(CCC#N)C(=O)COC(=O)C2=COCCO2)c1 | -6%[15.4 µM] | -20 | 6% | 7 | -7.6% | x | x
COc1cc(CC(=O)Nc2ccccc2N2CCOCC2)cc(OC)c1OC | -11%[15.4 µM] | -8 | 11% | -13 | x | 9% | 1.5
Cc1cccc(-c2oc3ccccc3c2-c2ccc3c(c2)OCO3)c1 | 12% | 5 | -19% | 10 | 3.8% | 2% | 2.4
CCOC(=O)N1CCC(NC(=O)CCc2c(C)nc3ncnn3c2C)CC1 | 15% | 2 | 2% | -2 | 0.9% | 14% | 3.0
Cc1cc(C)n(CCCNC(=O)c2ccc3c(c2)NC(=O)CS3)n1 | 4% | -6 | 0% | 5 | -0.7% | 23% | 0.4
CN(C(=O)CSc1nc2ccccc2s1)c1c(N)n(Cc2ccccc2)c(=O)[nH]c1=O | -4% | 26 | 1% | 3 | -0.5% | -13% | -0.6
O=C(NC(=S)Nc1ccc2c(c1)OCCO2)c1ccccc1 | -31% | 7 | 32µM* | 4 | 0.5% | -8% | 1.1
Cc1cccc(C)c1NC(=O)CCCSc1nnc(-c2ccco2)o1 | 6% | -10 | 16% | 14 | 0.2% | 5% | 3.1
Cc1ccc(CNC(=O)CN(c2cccc([N+](=O)[O-])c2)S(C)(=O)=O)cc1 | 6%[15.4 µM] | 13 | x | 3 | x | 8% | 4.3
CC1(c2ccccc2)NC(=O)N(CC#N)C1=O (stereo not drawn) | 5%[15.4 µM] | 4 | 13% | 5 | -0.8% | 25% | -5.3
COc1ccc(-c2nnc(-c3ccc(OCC(C)C)cc3)o2)cc1 | -15% | -6 | -14% | u | 7.9µM* | 4% | -0.5
O=C(Cc1cccs1)N1CCN(c2nc(-c3ccc(Cl)cc3)cs2)CC1 | u | 18 | u | -8 | -2.2% | -15% | 4.0
Oc1c(Cl)cc(Cl)cc1CNc1nccs1 | 3% | 18 | 2% | u | x | 6% | -3.1
Cc1c(C#N)c(=O)c(-[n+]2ccccc2)c([S-])n1-c1ccc(Cl)cc1 | -11% | -14 | 1% | -7 | -1.8% | -15% | 13
COc1cccc(NC(=O)C2CCCN2S(=O)(=O)c2ccc3c(c2)n(C)c(=O)c(=O)n3C)c1 (stereo not drawn) | u | -7&5 | 13% | u | -9.5%&-21% | 1% | -4.5
Cc1ccc(C)c(NC(=O)C2CCCN(c3cnccn3)C2)c1 (stereo not drawn) | 4% | 4 | 12% | 29 | -9.8% | 24% | x
c1ccc(-n2ncc3c(N4CCCC4)ncnc32)cc1 | -2% | 11 | -13% | -7 | 1.1% | 24% | 2.8
N#C/C(=C\c1cc2ccccc2nc1N1CCOCC1)C(=O)Nc1ccc(N2CCOCC2)cc1 | -2% | -7 | -3% | -4 | -2.5% | 17% | 1.1

Another view of two compounds above:
mol	gsp agonist	TRPML1 inh	gsp antagonist	TRPV1 PAM	ClpP mod	Sfp PPTase inh	Menin MLL FP FL
CN(Cc1ccc(C(C)(C)C)cc1)C(=O)Cc1ccc(S(=O)(=O)N2CCOCC2)s1	9%	27	-19%	-15	-0.4%	x	x
COc1ccc(CCNC2CC(=O)N(CCc3ccc(OC)c(OC)c3)C2=O)cc1OC (stereo not drawn)	-9%	17	3%	9	2.3%	-15%	-1.1
